High-throughput results as filed in PubChem BioAssay.
GIV-Gai inh – inhibitors of GIV peptide binding to Galpha-i3, primary screen, biochemical, fluorescence polarization, FITC-GIV GBA peptide, rat Galphai3 | 90 min; active compounds read low; scaled: aluminum fluoride 0%, vehicle 100% | 0.42% of 210,000 active | AID 1224905, 2016 | percent of control (FP), % (concentration not given with the values);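 active means replicate mean at 85% of control or lower, very high polarization wells dropped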;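 further: wells of about 15 µL received 100 nL stock; the first replicate is given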
Target sequence (P08753 whole entry, looked up): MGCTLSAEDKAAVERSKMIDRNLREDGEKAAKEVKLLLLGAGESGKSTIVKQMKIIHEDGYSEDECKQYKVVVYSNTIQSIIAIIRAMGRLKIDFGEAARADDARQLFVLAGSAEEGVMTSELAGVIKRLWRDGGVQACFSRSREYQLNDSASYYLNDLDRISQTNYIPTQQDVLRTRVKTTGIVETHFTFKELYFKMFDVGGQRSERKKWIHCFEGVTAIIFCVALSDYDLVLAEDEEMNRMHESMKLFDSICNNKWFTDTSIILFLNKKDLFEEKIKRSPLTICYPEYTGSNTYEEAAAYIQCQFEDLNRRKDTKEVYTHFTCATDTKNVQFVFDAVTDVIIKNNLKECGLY
Sa growth inh – S. aureus growth inhibition at 42 and 30 °C, primary screen, LtaS inhibitor project, RN4220, two temperatures; OD600, 20 h, 42 °C; active compounds read low; relative growth, % (no concentration beside the values); 0.53% of 170,000 active; AID 720641, 2013;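 active means growth at 42 °C up to 50% and 20 or more points under that at 30 °C, or under 10% at both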;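 further: 300 nL library stock went into each well; scaled to the means of positive and negative controls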
HCMV UL50-53 inh – inhibitors of HCMV UL50-UL53 interaction, biochemical, HTRF. AID 1918969, 2023. normalized percent inhibition. inhibition, % (test concentration not listed). 0.15% of 190,000 active;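 active means both replicates at 50% or more, plus weaker picks with an unusually low signal ratio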;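 further: stock transfer was 100 nL into about 20 µL; 0% = negative control wells and 100% = wells with untagged competitor protein; inactives centre near -12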
Sa growth inh second temp – recorded beside Sa growth inh, whose call it bears; relative growth, %; measured here: growth at 30 °C;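 optical density after 20 h as mean of two plates; 100% = untreated growth and lower means inhibition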
Active calls of the source: *; · = no result given; & = joins results of further samples. Hits appear at their usual frequency; any-hit rate near 0.83%.

SMILES | GIV-Gai inh | Sa growth inh | Sa growth inh second temp | HCMV UL50-53 inh
Cc1ccccc1Cn1c(=O)n(CC2CCC(C(=O)N3CCOCC3)CC2)c(=O)c2sccc21 (stereo unspecified) | 97 | 80 | 93 | ·
CCOc1ccc(Br)cc1C1NC(=O)c2c(sc3c2CCN(C)C3)N1 (stereo unspecified) | 134 | 97 | 79 | -52
CN(C)/C(=N\O)c1nonc1N | 99 | 104 | 84 | -26
Cc1ccc(Nc2nnc(SCc3nc4sc(C(=O)O)c(C)c4c(=O)[nH]3)s2)cc1C | · | 81 | 83 | -31
Cc1ccsc1/C=N/NC(=O)Cc1cc(=O)[nH][nH]1 | 103 | 93 | 81 | -36
CCS(=O)CC(=O)Nc1c(-c2ccccc2)oc2ccccc2c1=O (stereo unspecified) | 95 | 91 | 88 | -78
Cc1cccc(OCCn2cc(/C=N/n3cnnc3)c3ccccc32)c1 | 105 | 109 | 73 | -13
COc1ccc(C(=O)CN2C=NS(=O)(=O)c3ccccc32)cc1 | 106 | 110 | 96 | -32
O=C(NCCO)C1=NN=CC1 | · | 82 | 83 | -16
CC(C)OCCCN(C)C1CCN(S(=O)(=O)c2csc(C(N)=O)c2)CC1 | 101 | 113 | 90 | ·
COc1ccc(C(=O)CSc2n[nH]c(=O)n2-c2ccccc2)cc1 | 98 | 104 | 91 | -11
Cc1ccc(O)c(C2=Nc3ccccc3C2(C)C)c1 | 104 | 106 | 69 | ·
O=C(/C=C/c1ccco1)NC12CC3CC(CC(C3)C1)C2 | · | 88 | 81 | -13
CN(C(=O)COC(=O)c1ccc(C#N)cc1)C1CCCCC1 | · | 97 | 84 | -24
O=C(Nc1ccccc1)c1cnn2c1NC(c1ccc(Br)cc1)=CC2c1ccccc1 (stereo unspecified) | 99 | · | · | -10
COC(=O)CC1=NN(c2nc3ccccc3[nH]2)C(=O)C1 | 98 | 86 | 68 | -5
COc1cc2c3cc1Oc1cc(ccc1O)C[C@@H]1c4c(cc(OC)c(O)c4Oc4ccc(cc4)C[C@@H]3N(C)CC2)CC[N+]1(C)C | 94 | 97&95 | 85&91 | -3&-31
CCCCCC1C(=O)CCC1CC(=O)OC (stereo unspecified) | 102 | 92 | 85 | -28
CCOC(=O)c1c(NC(=O)NCc2cccn2Cc2ccc(F)cc2)sc2c1CCCC2 | 100 | · | · | -8
CC1CCN(C(=O)C2CCCN(S(=O)(=O)c3ccc4c(c3)CC(C)N4C(=O)C3CC3)C2)CC1 (stereo unspecified) | 107 | · | · | -7
Cc1ccc(NC(=O)NCc2noc3ccccc23)cc1F | 111 | · | · | -9
COc1ccc(C2C3C(=O)NC(=O)C3ON2c2ccccc2)cc1 (stereo unspecified) | 104 | 107 | 83 | ·
CC1Cc2ccccc2N1S(=O)(=O)c1cc(Br)cnc1N (stereo unspecified) | 106 | 82 | 84 | ·
CO/N=C(\C(=O)Sc1nc2ccccc2s1)c1csc(N)n1 | 94 | 48 | 36 | -20
CCN(Cc1ccccc1)C(=O)Cn1c(=O)n(-c2ccccc2)c(=O)c2c1c1cc(C)ccc1n2C | 108 | 119 | 81 | ·
COc1ccccc1N1CCN(C(=O)c2cc(-c3ccc(F)cc3)on2)CC1 | 105 | 102 | 89 | -9
CCOc1c(Cl)cc(CNCCNC(=O)c2nonc2N)cc1OC | 102 | · | · | -18
Cc1c(C)n(Cc2ccc(Cl)cc2)c2ccc(C(=O)NCCc3ccc(S(N)(=O)=O)cc3)cc12 | 112 | 93 | 93 | ·
Cc1ccc2onc(CNC(=O)NCCCN3CCOCC3)c2c1 | 103 | 104 | 92 | -19
COc1cc(NC(=O)Cn2ccn(-c3cc(C)cc(C)c3)c(=O)c2=O)cc(OC)c1 | 96 | 91 | 87 | -20
COc1ccc(C2C(C#N)=C(C)NC(C)=C2C#N)c(OC)c1 | · | 121 | 89 | -52
O=C(NCC1CCCO1)c1ccc2c(c1)CCCN2S(=O)(=O)c1ccc(Br)cc1 (stereo unspecified) | 102 | · | · | -18
CCc1cccc(NC(=O)Cn2cc(C(=O)c3ccncc3)c(=O)c3cc(C)c(C)cc32)c1 | 108 | 102 | 99 | ·
O=C(O)COc1ccc(-c2nnn(Cc3ccc(Cl)cc3Cl)n2)cc1 | 100 | 98 | 97 | -12
CCC1=C(c2ccc(C)cc2)S(=O)(=O)N=C1N1CCC(C(=O)NCc2ccccc2Cl)CC1 | 100 | 105 | 88 | -35
CC(=O)c1ccc(NC(=O)Cn2ncc3c4ccccc4n(Cc4ccccc4)c3c2=O)cc1 | 106 | 100 | 85 | -24
CCN(Cc1ccccc1)C(=O)c1ccc(C)cc1 | 95 | 107 | 97 | -4
COc1cc(C(=O)OC(C)C(=O)N2CCC(C)CC2)cc(CN2C(=O)c3ccccc3C2=O)c1OC (stereo unspecified) | · | 97 | 87 | -37
Cc1ccccc1NC(=S)N(C(C)C)C1CCN(C(C)C)CC1 | 97 | 97 | 93 | -5
CCC(=O)N1c2ccccc2CC1C(=O)NCCCN1CCN(c2ccc(F)cc2)CC1 (stereo unspecified) | 103 | 108 | 98 | ·
CC1(C)C/C(=N\O)c2cc3c(nc2C1)CCCC3 | 102 | 118 | 98 | -17
O=C(CN1C(=O)C2CCCCN2c2ccc(C(=O)N3CCCCC3)cc21)NCc1cccnc1 (stereo unspecified) | 104 | · | · | -24
COC(=O)c1sccc1NC(=O)c1cc2c([nH]c1=O)CC(c1ccccc1)CC2=O (stereo unspecified) | 134 | · | · | 9
COC(=O)C1CC(=O)N(c2ccccc2)C1 (stereo unspecified) | 95 | 95 | 76 | -30
CCOC(=O)c1sc2ncn(CC(=O)OCC(C)C)c(=O)c2c1C | 102 | 94 | 87 | -17
Nc1nonc1C(=O)N/N=C/c1ccccc1 | 103 | 93 | 95 | -11
COc1cc(OC)cc(C(=O)NCC(c2cccs2)S(=O)(=O)c2ccc(F)c(C)c2)c1 (stereo unspecified) | 106 | 137 | 104 | ·
O=C(Oc1ccccc1)c1ccc(CS(=O)(=O)c2ccc(C(F)(F)F)cn2)o1 | 99 | 88 | 90 | 3
CN(Cc1ccccc1)C(=O)c1ccccc1C(=O)N1CCN(c2ncccn2)CC1 | · | 108 | 86 | -25
COc1ccc(-c2c(C)[nH]n3c(=O)cc(C)nc23)cc1 | 108 | · | · | -2
Cn1c(CC(=O)Nc2ccccc2F)nnc1SCC(=O)NC1=NCCS1 | 104 | 98 | 80 | -12
CC(=O)NC1C(=O)N=C(SCC(=O)Nc2cccc3ccccc23)NC1=O (stereo unspecified) | 104 | 89 | 88 | -1
COc1cc(COc2ccc3c4c(c(=O)oc3c2)CCC4)cc(OC)c1OC | 101 | 103 | 94 | ·
Cc1nn(-c2ccccc2)c2c1N(CCCC(=O)NCc1ccc(OC(C)C)cc1)C(=O)CS2 | 102 | 78 | 83 | ·
COc1cccc(OCC(=O)Nc2ccc(OC(C)=O)cc2C(=O)O)c1 | 106 | 96 | 85 | -23
O=C(O)c1ccc(COc2ccccc2/C=C2\NC(=O)N(Cc3ccccc3)C2=O)cc1 | 103 | 64 | 34 | ·
O=S(=O)(NCc1cccn1Cc1ccccc1)c1ccccc1Cl | 108 | · | · | -26
CC(NC(=O)/C=C/c1cccc2ccccc12)c1ccccc1 (stereo unspecified) | · | 99 | 69 | 6
Cc1cc(C(=O)Nc2cccnc2)no1 | 105 | 100 | 85 | ·
CCCCC(Sc1nc2c(cnn2CCO)c(=O)[nH]1)C(=O)O (stereo unspecified) | 104 | · | · | -23

Continued.
SMILES | GIV-Gai inh | Sa growth inh | Sa growth inh second temp | HCMV UL50-53 inh
COc1ccc(CCNC(=O)c2cn(C3CCCC3)c(=O)c3c2c2ccccc2n3C)cc1OC | 95 | 117 | 88 | ·
CCOC(=O)C1=C(C)NC(SCc2ccc(C(=O)O)cc2)=NC1c1ccc(OCC)cc1 (stereo unspecified) | 100 | 89 | 85 | ·
COc1cc2c(cc1OC)CC(C(=O)O)NC2 (stereo unspecified) | 109 | 95 | 95 | -2
O=C(Nc1ncnc2sc3c(c12)CCCCC3)c1ccco1 | · | 91 | 86 | -16
CC(C)=NNC(=O)Nc1c(-c2c(Cl)cccc2Cl)noc1C | 108 | 91 | 96 | -18
C=CCc1c(C)nc2nc(SCC(=O)Nc3cccc(Cl)c3)nn2c1C | 99 | 100 | 84 | ·
CCN1C(=O)NC(c2ccccc2[N+](=O)[O-])C(C(=O)OCCc2ccccc2)=C1C (stereo unspecified) | 103 | · | · | -16
Cc1ccc(C)c(C(=O)CSc2nnc(-c3cccs3)n2CC2CCCO2)c1 (stereo unspecified) | · | 86 | 86 | -16
Fc1ccc(CN2CCc3nc(Nc4ccc(F)cc4)ncc3C2)cc1 | 111 | 107 | 89 | -34
Cc1ccc2nc(SC3CCCCC3=O)[nH]c2c1 (stereo unspecified) | · | 97 | 88 | -14
C=Cc1ccc(Cn2c(C(=O)O)c(CNCc3ccccc3)c3ccc(C)cc32)cc1 | 110 | 102 | 38 | ·
CN1CCN(C(=O)NCC23CC4CC(CC(C4)C2)C3)CC1 | 110 | 91 | 99 | ·
O=C1Cc2ccccc2C(=O)N1c1cccc(Cl)c1 | · | 82 | 97 | 7
CC1=C(C(=O)Nc2ccc(Cl)cc2)C(C(C)C)n2nc(SCc3cccc(C)c3)nc2N1 (stereo unspecified) | 105 | 114 | 87 | -18
CCOCc1nnc(NC(=O)C2CC(=O)N(C(C)(C)C)C2)s1 (stereo unspecified) | 106 | 94 | 84 | ·
CCOC(=O)N1CCN(S(=O)(=O)N2CCCC(C(=O)NCc3cc(OC)ccc3OC)C2)CC1 (stereo unspecified) | 98 | 116 | 87 | ·
Cc1cc(C(=O)COC(=O)c2ccc(O)cc2)c(C)n1CC1CCCO1 (stereo unspecified) | · | 99 | 87 | -29
CC1=Nc2cc(C(=O)NC3CCCCC3)ccc2Sc2ccc(Cl)cc21 | 103 | 101 | 94 | ·
COc1ccc(NC(=O)c2nnc(CCCC(=O)NCCc3c[nH]c4ccc(C)cc34)s2)cc1 | 103 | · | · | -38
Fc1c(F)c(C(F)(F)F)c(F)c2c1Oc1cc(Cl)c(Cl)cc1O2 | 109 | 82 | 85 | ·

Grouped by structure: the entries above containing a cyano group.
SMILES | GIV-Gai inh | Sa growth inh | Sa growth inh second temp | HCMV UL50-53 inh
CN(C(=O)COC(=O)c1ccc(C#N)cc1)C1CCCCC1 | · | 97 | 84 | -24
COc1ccc(C2C(C#N)=C(C)NC(C)=C2C#N)c(OC)c1 | · | 121 | 89 | -52

More results follow:
SMILES | GIV-Gai inh | Sa growth inh | Sa growth inh second temp | HCMV UL50-53 inh
OC(CNCCc1cccs1)COc1ccccc1 (stereo unspecified) | 101 | 105 | 87 | -16
CCCOC(=O)CSC1=C(C#N)C(c2ccc(Cl)cc2)C(C(=O)OC)C(=O)N1 (stereo unspecified) | 107 | · | · | -6
CC1CCc2nc(NC(=O)c3cc(=O)c4ccccc4o3)sc2C1 (stereo unspecified) | 100 | · | · | -30
CCC(=O)N1CCCc2ccccc21 | 107 | 104 | 86 | -14

Filtered by structure, the compounds so far containing a thiophene ring, fused or not.
SMILES | GIV-Gai inh | Sa growth inh | Sa growth inh second temp | HCMV UL50-53 inh
Cc1ccccc1Cn1c(=O)n(CC2CCC(C(=O)N3CCOCC3)CC2)c(=O)c2sccc21 (stereo unspecified) | 97 | 80 | 93 | ·
CCOc1ccc(Br)cc1C1NC(=O)c2c(sc3c2CCN(C)C3)N1 (stereo unspecified) | 134 | 97 | 79 | -52
Cc1ccc(Nc2nnc(SCc3nc4sc(C(=O)O)c(C)c4c(=O)[nH]3)s2)cc1C | · | 81 | 83 | -31
Cc1ccsc1/C=N/NC(=O)Cc1cc(=O)[nH][nH]1 | 103 | 93 | 81 | -36
CC(C)OCCCN(C)C1CCN(S(=O)(=O)c2csc(C(N)=O)c2)CC1 | 101 | 113 | 90 | ·
CCOC(=O)c1c(NC(=O)NCc2cccn2Cc2ccc(F)cc2)sc2c1CCCC2 | 100 | · | · | -8
COC(=O)c1sccc1NC(=O)c1cc2c([nH]c1=O)CC(c1ccccc1)CC2=O (stereo unspecified) | 134 | · | · | 9
CCOC(=O)c1sc2ncn(CC(=O)OCC(C)C)c(=O)c2c1C | 102 | 94 | 87 | -17
COc1cc(OC)cc(C(=O)NCC(c2cccs2)S(=O)(=O)c2ccc(F)c(C)c2)c1 (stereo unspecified) | 106 | 137 | 104 | ·
O=C(Nc1ncnc2sc3c(c12)CCCCC3)c1ccco1 | · | 91 | 86 | -16
Cc1ccc(C)c(C(=O)CSc2nnc(-c3cccs3)n2CC2CCCO2)c1 (stereo unspecified) | · | 86 | 86 | -16
OC(CNCCc1cccs1)COc1ccccc1 (stereo unspecified) | 101 | 105 | 87 | -16
